# MT1-MMP act inh = blocks activation of human MT1-MMP; 360,000 tested, 0.061% active; P50281; HT1080 RFP-PRO-GFP cells, GFP/RFP ratio fluorescence, overnight; percent of plate control window, DMSO zero; GFP/RFP ratio change, % at 20 µM; AID 651647;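 active means GFP/RFP ratio change of at least 30% with cell ATP level not reduced by more than half and red fluorescence within 50% of control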; further: strong numbers were not always called active
#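 Test system: HT1080 RFP-PRO-GFP cells; Benchmarks: DMSO and RFP-L50D-GFP cell wells; Timing: cells overnight before dosing, compound overnight, 37 °C, 5% CO2; Compound: one 20 µM compound dose with 1% DMSO; Read-out: GFP/RFP fluorescence ratio.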
# HIV Env fusion = inhibitors of HIV Env-mediated cell fusion; HeLa-JRFL Env/CEM21 cell fusion, luciferase; inhibition, % at 12.3 µM; 360,000 tested, 1.1% active; AID 651610;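 active means mean replicate inhibition score of at least 50 and every replicate individually at or above 50; inconclusive means only one of the two criteria met; inactive means mean below 50 and not all replicates reaching 50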;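 further: 0% = plate neutral controls and 100% = maraviroc near 300 nM; one replicate is shown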
# Rce1 inh = blocks yeast Ras-converting enzyme; Q03530; calls only; yeast membranes, quenched prenylated peptide cleavage fluorescence; 290,000 tested, 0.27% active;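 active means fall in fluorescence gain of 50% or more versus controls, with final raw signal at or below 3038400; inconclusive means same 50% fall but final raw signal above 3038400; inactive means fall in fluorescence gain under 50%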;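 further: plate controls were neutral control wells for no effect and wells lacking membranes for full effect; tested at 10 µM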
# Target sequence (Q03530 whole entry, looked up): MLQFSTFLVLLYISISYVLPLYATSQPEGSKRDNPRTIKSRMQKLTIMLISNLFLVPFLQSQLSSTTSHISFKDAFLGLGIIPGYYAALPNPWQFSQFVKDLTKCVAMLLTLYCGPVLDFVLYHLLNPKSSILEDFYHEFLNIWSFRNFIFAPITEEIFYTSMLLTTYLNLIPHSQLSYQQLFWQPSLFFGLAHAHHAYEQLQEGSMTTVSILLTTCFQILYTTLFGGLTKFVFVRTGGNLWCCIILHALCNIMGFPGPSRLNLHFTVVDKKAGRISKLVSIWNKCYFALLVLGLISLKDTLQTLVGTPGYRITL
# eIF4H FP inh = inhibitors of RNA binding by human eIF4H; 290,000 tested, 0.94% active; AID 2012; eIF4H fluorescence polarization binding assay; inhibition, % at 35 µM; Q15056;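 active means 50% or more with normal probe brightness, or confirmed in later tests; inconclusive means above 50% with abnormal brightness, or retests that disagree; inactive means below 50% or failed in later tests; about a fifth of its hits are not listed in these tables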;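 further: calls also rest on retests at 20 µM and on dose response follow-up; 0% = protein and probe with vehicle and 100% = probe without protein; strong numbers were not always called active; many hits fall short of the cut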
# PABP FP inh = PABP-poly(A) binding inhibition; P11940; PABP-poly(A) RNA binding, fluorescence polarization; inhibition, % at 35 µM; 290,000 tested, 1% active; AID 2014;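 active means 50% or more with normal probe brightness, or confirmed in later tests; inconclusive means above 50% with abnormal brightness, or retests that disagree; inactive means below 50% or failed in later tests; about a fifth of its hits are not listed in these tables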;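 further: calls also rest on retests at 20 µM and on dose response follow-up; controls were probe without protein and protein plus probe with vehicle; some compounds called inactive have numbers as strong as hits; many hits fall short of the cut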
# UUG fidelity = alters start codon recognition fidelity in yeast; activity score, % at 18.7 µM; AID 602363; 350,000 tested, 0.13% active; S. cerevisiae UUG-firefly luciferase reporter, luminescence/redox ratio;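 active means replicate mean at a twofold rise or more, about +100% in these data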;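 further: firefly luciferase made from a UUG start codon reports start codon fidelity; reporter light over untreated wells divided by growth signal over untreated wells; some hits fall short of that in this replicate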
# CSC inhib = blocks cancer stem cells. cancer stem cell-like cells viability, luminescence. 300,000 tested, 1.1% active. AID 2717. inhibition, % at 7.5 µM;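 active means mean at 75% or more and at least half the replicates too; inconclusive means mean and replicates disagree; tested in HMLE shEcad cells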;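 further: 0% = median of negative and 100% = median of positive control wells; the first replicate is given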
# MT1-MMP act inh RFP = second read-out of MT1-MMP act inh, no call of its own (marks repeat the call); RFP signal change, %; measured here: RFP expression control read;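 0 = vehicle wells; hits needed this value within 50% of zero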
# * hit, by the source's call; i = inactive; ? = inconclusive; . = not tested or not shown.
SMILES,MT1-MMP act inh,MT1-MMP act inh RFP,HIV Env fusion,Rce1 inh,eIF4H FP inh,PABP FP inh,UUG fidelity,CSC inhib
Cc1ccc(NC(=O)c2ncn(CCCNCc3ccccc3)n2)cc1C,4.3,6.7,3.7,.,.,.,-13.4,.
COC(=O)c1ccc2nc(C3CCCCC3)c(Cc3ccc(C)cc3)n2c1,-8.3,-7.0,15.0,.,.,.,11.7,.
O=C(Cn1cnc2c(nnn2Cc2ccccc2)c1=O)N1CCN(c2ccccc2)CC1,5.8,-1.1,13.1,i,-11.7,-5.3,-2.3,-16.4
CSc1nc(N2CCN(c3ccccc3)CC2)cc(N2CCN(c3ccccc3)CC2)n1,-2.5,-4.4,14.6,i,-13.8,2.7,-8.5,2.1
COc1ccc(-c2nc3ccccn3c2Cl)cc1,1.7,2.1,-116.0,i,-11.2,-3.2,-54.2,12.1
Cc1cccc(N=C2NC(=O)/C(=C/c3cn(C)c4ccccc34)S2)c1,-21.3,-9.0,-119.7,i,2.5,-3.5,.,47.4
CC(O)(c1ccc(F)c(F)c1)c1nc(-c2cccc(C#N)c2)cs1 (centres undefined),-3.2,-5.9,24.7,.,.,.,-4.2,.
CC(C)c1ccc(N(CC(=O)NCc2cccnc2)S(=O)(=O)c2ccccc2)cc1,-2.4,0.5,33.6,i,-6.1,-3.8,-4.6,-7.2
COc1ccc(OCC(=O)Nc2cccc(-c3nc4ccccc4[nH]3)c2)cc1,14.6,-4.9,-18.8,i,-4.0,14.8,-5.8,-4.7
O=C(c1ccc(CS(=O)c2ccccc2Cl)o1)N1CCCCCC1 (centres undefined),-2.3,-0.7,-25.7,i,1.1,-4.0,-10.8,3.0
Cc1cc(Cl)ccc1-c1cc2nc(NCCCN(C)C)n(C)c(=O)c2s1,3.2,9.3,-22.5,.,.,.,-2.2,.
COc1ccc(C(=O)NNC(=S)NC(=O)c2ccco2)cc1,10.8,5.1,32.7,i,2.0,3.4,.,8.1
CN(C(=O)CSc1nnc(-c2cccs2)o1)C1CCS(=O)(=O)C1 (centres undefined),-0.7,2.4,-1.5,.,-2.5,36.3,-17.2,5.0
CCOC(=O)C1C(c2cccc([N+](=O)[O-])c2)C2C(=O)NN=C2CC1(C)O (centres undefined),1.7,6.6,-7.6,i,1.1,-4.4,.,-4.4
O=C(Nc1ccc(CN2CCOCC2)cc1)c1ccc(Cl)cc1,4.1,-10.0,-33.4,i,-0.6,-12.9,-15.5,-6.4
O=C(COc1ccccc1)NNC(=O)c1cccs1,-7.4,1.0,5.3,.,-5.3,-2.4,-6.9,-5.4
CS(=O)(=O)N(CC(=O)NC1CC1)c1cccc(F)c1,0.0,3.1,.,i,-11.7,-5.4,-3.8,-17.7
Cc1ccc(C(=O)Nc2ccsc2C(=O)O)cc1,2.7,4.5,-91.1,i,-8.7,12.4,.,14.2
CC(C)(C)NC(=S)N1CCC(C(=O)c2ccc(Cl)cc2)CC1,-1.3,1.9,5.4,i,8.4,4.6,-6.7,0.6
Cc1ccc(C2(c3ccc(C)cc3)CC2C(=O)NC(C)C)cc1 (centres undefined),-3.7,-5.3,0.0,i,6.9,-3.4,-0.7,15.4
COc1cc(CCC(C)=O)ccc1OC(=O)c1c(F)cccc1Cl,1.8,-0.2,-31.5,i,-5.0,2.6,1.2,0.8
Cc1ccc(-c2c(C)n([O-])c3c([n+]2=O)CCCC3)o1,3.0,-0.4,.,i,-0.6,13.5,-17.1,-12.8
CCc1c2ccccc2nn1-c1ccccc1C(=O)C(C)=O,2.1,-2.2,12.3,i,6.7,4.1,-16.2,-0.7
Cc1cc(NC(=O)c2cc(C(C)C)on2)nn1Cc1ccc(Cl)cc1,-8.5,-28.0,15.5,i,1.5,-5.1,-8.6,0.5
Cc1c(C(=O)NN2CCOCC2)cccc1[N+](=O)[O-],2.1,3.8,5.4,i,.,.,.,-2.1
SMILES,MT1-MMP act inh,MT1-MMP act inh RFP,HIV Env fusion,Rce1 inh,eIF4H FP inh,PABP FP inh,UUG fidelity,CSC inhib
CCOC(=O)c1ccc(NC(=O)CN2CCN(C(=O)C3CCCO3)CC2)cc1 (centres undefined),-5.7,2.5,-0.5,i,-11.4,-4.1,-14.3,-15.2
CCOC(=O)c1ccc(NC(=O)Cn2nnc(-c3ccccc3)n2)cc1,-3.7,-11.2,.,i,-4.3,6.1,-23.4,-2.9
Cc1ccc(NC(=O)CN(C)C(=O)Cc2ccccc2F)cc1,-0.8,3.7,7.6,i,11.8,9.2,-13.4,.
O=C(CN1C(=O)/C(=C/c2ccccc2)SC1=S)NC1C=CS(=O)(=O)C1 (centres undefined),-2.2,-0.5,7.4,i,.,.,-3.9,2.7
CCCc1n[nH]c(=O)[nH]1,3.5,2.0,.,i,1.2,-3.1,-8.7,-4.7
Cc1c(Cl)cccc1NC(=O)CSc1nncn1-c1ccccn1,0.9,-1.3,-2.7,i,-14.1,6.4,-22.5,-7.5
COc1cccc(C(NC(C)=O)c2nc(-c3cccc(F)c3)cs2)c1 (centres undefined),-0.6,-5.6,-1.8,.,.,.,-14.1,.
CCOC(=O)c1cn[nH]c1NC(=S)Nc1ccc(Cl)cc1,4.5,-7.2,i,i,-6.0,-7.0,-31.5,-7.1
O=C(Nc1ccc2c(c1)OCO2)C1Cc2c(-c3ccncc3)ccnc2O1 (centres undefined),4.9,-0.6,12.0,.,.,.,-31.3,.
O=S(=O)(c1ccc(OCC(O)CN2CCN(c3ccccc3)CC2)cc1)N1CCOCC1 (centres undefined),6.0,0.0,.,i,-3.2,26.6,-1.7,-0.6
O=C(Nc1ccccc1N1CCN(c2ccccc2)CC1)C12CC3CC(CC(C3)C1)C2,-15.4,-12.0,-12.0,i,-0.5,-6.7,-13.1,2.5
CSCCC1NC2(C(=O)Nc3c(Cl)cccc32)[C@@H]2C(=O)N(C3CCCC3)C(=O)[C@H]12 (some centres undefined),5.4,-2.8,-49.0,i,11.6,16.2,-10.2,-6.6
O=C(Cn1cccc1C(=O)c1ccccc1)NCCCN1CCc2ccccc2C1,-0.6,4.8,-1.6,i,-2.2,-9.3,.,-12.7
OCC[C@H]1C[C@H](O)[C@@H](O)[C@]2(Cc3ccccc3CO2)O1,0.5,2.2,-3.4,.,.,.,-15.2,8.6
CCOC(=O)N1CCN(Cc2nc(-c3ccc(Cl)cc3)no2)CC1,0.0,-13.5,.,i,-9.1,-3.1,5.1,-10.3
Cc1cc(C(=O)Cn2cnc3ccccc3c2=O)c(C)n1C1CC1,4.6,1.7,-14.7,i,.,.,-16.7,6.1
O=C(Nc1cc(S(=O)(=O)Nc2ccc(Cl)cc2)ccc1N1CCCCC1)c1ccc(F)cc1Cl,-35.8,-27.1,12.3,i,8.0,10.8,.,77.5*
COc1ccc(C(C(=O)NC2CCCCC2)N(C(=O)c2cccs2)c2ccc3c(c2)OCO3)cc1 (centres undefined),-4.0,-4.9,.,i,2.2,2.2,-26.8,0.0
C=C1CCN([C@@H](Cc2ccccc2)C(=O)NCc2ccccc2)S(=O)(=O)c2ccccc21,-7.3,-5.9,22.9,i,.,.,-4.2,-7.6
NNC(=O)CCN1CCCCC1,-1.8,4.7,12.2,i,-2.0,15.5,.,-15.3
COc1ccccc1/C=C1\SC(=S)N(CCC(=O)Nc2cc(C)on2)C1=O,-4.0,1.0,9.1,i,6.8,-9.5,.,0.0
O=C(CN1C(=O)c2ccccc2C1=O)OCC(=O)N1CCCCC1,3.3,4.3,.,.,.,.,-10.8,-18.8
COc1ccc(S(=O)(=O)NC2CC3CCC2C3)cc1Cl (centres undefined),-1.7,-0.9,.,i,-4.8,5.0,-11.1,-3.2
O=C(O)Cn1nnc(-c2cccs2)n1,3.1,5.3,.,i,-2.6,3.0,-13.6,-1.3
CCN(CC)c1ccc(NC(=S)Nc2ccc(F)cc2)cc1,-2.1,-4.0,-1.4,i,4.4,-8.2,-3.9,.
SMILES,MT1-MMP act inh,MT1-MMP act inh RFP,HIV Env fusion,Rce1 inh,eIF4H FP inh,PABP FP inh,UUG fidelity,CSC inhib
Cc1ccc(-c2nn(-c3ccccc3)cc2C(=O)NCC2CCCO2)cc1 (centres undefined),3.8,3.9,.,i,.,.,.,-11.3
Cc1ccc(-n2nc3c(=O)n(CCCC(=O)NC4CCC(C)CC4)nc(C)c3c2C)cc1 (centres undefined),6.6,-2.7,8.2,i,6.3,0.6,-12.2,6.5
COc1ccccc1CNC(=O)Cc1ccc(C)cc1,3.5,6.4,-7.7,i,1.1,?,.,4.9
Cc1ccc(N=Nc2c(N)[nH]n3c(=O)cc(C)nc23)cc1,4.5,0.9,-26.0,i,9.2,-5.1,-3.7,4.1
Cc1cc(NC(=O)CSc2nc(-c3ccccc3Cl)nc3c2c(=O)n(C)c(=O)n3C)no1,2.9,3.3,17.4,i,1.1,-2.8,-16.0,-2.2
CCCc1cc(=O)[nH]c(SCC(=O)Nc2cccc3ccccc23)n1,-2.9,-4.8,-5.0,i,-7.8,0.9,-17.2,7.7
O=c1c2ccccc2[nH]c(=S)n1CCCN1CCN(C2CCCCC2)CC1,1.2,2.4,.,.,12.7,6.5,.,42.8
COc1cccc(NC(=O)Cn2c3ccc(F)cc3c3nc4n(c(=O)c32)CCCS4)c1,-2.5,-6.6,-6.7,i,.,.,-15.3,-2.6
COc1cc(C(CC(=O)N2CCCC2)c2c(OC)cc(OC)c3c(-c4ccccc4)cc(=O)oc23)cc(OC)c1OC (centres undefined),-8.0,-11.4,43.9,i,78.2*,53.4*,3.2,-13.9
NC(=O)C1CCN(C(=O)CCC(=O)N2CCOc3ccc(Cl)cc32)CC1,-2.2,3.4,-9.6,i,-8.2,-11.1,-5.3,6.3
CC(C)c1ccc(CNc2ccc3c(c2)ncn3C)cc1,2.8,-8.3,-35.6,i,-2.8,4.9,-15.5,0.0
CCn1c(=O)c2ccccc2n(CC(=O)NC2CCCCC2)c1=O,-3.3,0.0,0.2,.,1.5,10.2,5.2,6.4
CCOC(=O)c1c(C)[nH]c(C)c1S(=O)(=O)N(C)CC(=O)NCc1ccc(C)cc1,-3.1,-0.9,-3.9,i,-3.5,-2.0,.,-22.0
CCCc1ccc2oc(C(=O)N(C)CCn3ccnc3C)c(C)c2c1,-0.2,-6.2,14.9,i,5.6,2.1,0.3,66.7
Cc1ccnc(NC(=O)CCC(=O)N(CC(=O)NC(C)(C)C)c2ccc3c(c2)OCCO3)c1,-2.2,1.7,1.5,i,-10.0,5.5,.,-10.0
CCCn1ccc(O)c(Cc2ccc(Cl)cc2)c1=O,-1.4,-4.7,-4.9,i,-10.2,-17.8,.,-14.3
Cc1cc(-c2c(C)n([O-])c(C)c(C)[n+]2=O)ccc1F,-4.2,-1.8,-51.0,i,-3.5,12.1,-10.9,-8.6
CN1OC[C@@H]2CN3C(=O)N(c4ccccc4)c4ccccc4[C@@H]3C[C@@H]21,-2.6,0.6,-13.5,.,.,.,-11.4,.
CCN(CC(=O)NCc1ccc(Cl)cc1)C(=O)c1ccc(S(=O)(=O)N(C)C)cc1,0.6,-3.8,7.8,i,-10.0,5.1,2.0,-3.7
CCC(Sc1nnc(C)s1)C(=O)Nc1nccs1 (centres undefined),0.8,2.7,-48.7,i,-0.6,-0.7,-12.6,-5.3
Cc1ccnc(SCC(=O)N2CCN(c3cccc(Cl)c3)CC2)n1,1.8,-1.9,-12.9,i,-3.0,13.1,-12.1,14.7
COC(=O)Nc1nnc(-c2ccc(OC)cc2)s1,-5.9,-3.5,-11.0,i,1.8,-5.0,.,-1.3

# Screening data from PubChem.

# Compounds as they come; 2.9% or so of the library scored in one or more.
